High-throughput results: PubChem BioAssay, several laboratories
PABP polyA inh – PABP poly(A) RNA binding inhibitors, primary screen, biochemical, fluorescence polarization, uHTS | inhibition, % at 35 µM | 290,000 compounds, 1% hits;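 active = 50% or more with normal probe brightness, or confirmed in later tests; inconclusive = above 50% with abnormal brightness, or retests that disagree; inactive = below 50% or failed in later tests; about a fifth of its hits are not listed in these tables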;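 also: calls also rest on retests at 20 µM and on dose response follow-up; controls were probe without protein and protein plus probe with vehicle; some compounds called inactive have numbers as strong as hits; many hits fall short of the cut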
Target sequence (P11940 whole entry, looked up): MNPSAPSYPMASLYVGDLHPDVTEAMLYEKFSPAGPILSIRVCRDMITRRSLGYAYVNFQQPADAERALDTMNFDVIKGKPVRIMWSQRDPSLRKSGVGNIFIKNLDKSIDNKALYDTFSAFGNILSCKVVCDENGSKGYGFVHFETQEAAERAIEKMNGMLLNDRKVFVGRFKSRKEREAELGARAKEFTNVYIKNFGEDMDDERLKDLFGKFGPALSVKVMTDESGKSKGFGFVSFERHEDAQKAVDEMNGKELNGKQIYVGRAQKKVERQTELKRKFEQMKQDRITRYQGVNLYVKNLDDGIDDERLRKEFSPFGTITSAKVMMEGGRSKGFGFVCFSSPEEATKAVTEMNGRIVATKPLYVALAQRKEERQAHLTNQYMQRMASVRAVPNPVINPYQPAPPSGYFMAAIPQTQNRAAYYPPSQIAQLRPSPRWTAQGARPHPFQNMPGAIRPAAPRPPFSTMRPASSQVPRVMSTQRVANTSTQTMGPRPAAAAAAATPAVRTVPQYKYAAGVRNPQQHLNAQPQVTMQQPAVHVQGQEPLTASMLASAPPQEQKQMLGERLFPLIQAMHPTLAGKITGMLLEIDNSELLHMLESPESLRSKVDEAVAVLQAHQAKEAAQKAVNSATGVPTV
CSC inhib – cancer stem cell viability inhibitors, primary screen, luminescence. inhibition, % at 7.5 µM. AID 2717, 2010. cancer stem cell-like cells viability. 300,000 compounds, 1.1% hits;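 active = mean at 75% or more and at least half the replicates too; inconclusive = mean and replicates disagree; tested in HMLE shEcad cells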;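 also: 0% = median of negative and 100% = median of positive control wells; the first replicate is given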
UUG fidelity – modulators of yeast start codon fidelity, primary screen, whole organism, S. cerevisiae, single point, plate reader; S. cerevisiae UUG-firefly luciferase reporter, luminescence/redox ratio; activity score, % at 18.7 µM; 350,000 compounds, 0.13% hits; AID 602363, 2012;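 active = replicate mean at a twofold rise or more, about +100% in these data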;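 also: firefly luciferase made from a UUG start codon reports start codon fidelity; reporter light over untreated wells divided by growth signal over untreated wells; some hits fall short of that in this replicate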
HIV Env fusion – inhibitors of HIV-1 Env-driven cell-cell fusion, primary screen, HeLa-JRFL effector, CEM21 target cells, luciferase. inhibition, % at 12.3 µM. 360,000 compounds, 1.1% hits. AID 651610, 2012;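 active = mean replicate inhibition score of at least 50 and every replicate individually at or above 50; inconclusive = only one of the two criteria met; inactive = mean below 50 and not all replicates reaching 50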;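 also: 0% = plate neutral controls and 100% = maraviroc near 300 nM; one replicate is shown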
eIF4H inh – human eIF4H binding inhibitors, primary screen, translation initiation inhibitor project, biochemical, uHTS, fluorescence polarization; Eukaryotic translation initiation factor 4H (Homo sapiens), Q15056; 290,000 compounds, 0.94% hits; eIF4H fluorescence polarization binding assay; AID 2012, 2009; inhibition, % at 35 µM;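 active = 50% or more with normal probe brightness, or confirmed in later tests; inconclusive = above 50% with abnormal brightness, or retests that disagree; inactive = below 50% or failed in later tests; about a fifth of its hits are not listed in these tables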;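 also: calls also rest on retests at 20 µM and on dose response follow-up; 0% = protein and probe with vehicle and 100% = probe without protein; strong numbers were not always called active; many hits fall short of the cut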
Rce1 inh – yeast Rce1p protease inhibitors, primary screen, biochemical, fluorescence, cell-free homogeneous | CAAX prenyl protease 2 (Saccharomyces cerevisiae (strain ATCC 204508 / S288c)), Q03530 | calls only | AID 2563, 2010 | yeast membranes, quenched prenylated peptide cleavage fluorescence | 290,000 compounds, 0.27% hits;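 active = fall in fluorescence gain of 50% or more versus controls, with final raw signal at or below 3038400; inconclusive = same 50% fall but final raw signal above 3038400; inactive = fall in fluorescence gain under 50%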;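 also: plate controls were neutral control wells for no effect and wells lacking membranes for full effect; tested at 10 µM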
Target sequence (Q03530 whole entry, looked up): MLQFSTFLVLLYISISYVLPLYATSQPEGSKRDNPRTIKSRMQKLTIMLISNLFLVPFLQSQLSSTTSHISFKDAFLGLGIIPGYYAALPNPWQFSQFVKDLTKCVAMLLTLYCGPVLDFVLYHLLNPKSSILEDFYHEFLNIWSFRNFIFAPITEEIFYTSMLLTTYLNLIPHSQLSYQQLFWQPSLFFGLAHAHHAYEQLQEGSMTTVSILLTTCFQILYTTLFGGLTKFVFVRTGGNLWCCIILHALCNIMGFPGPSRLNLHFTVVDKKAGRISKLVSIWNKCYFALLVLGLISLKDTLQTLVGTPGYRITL
MT1-MMP act inh – blockers of MT1-MMP proenzyme processing, primary screen, HT1080 RFP-PRO-GFP cells, GFP/RFP fluorescence; GFP/RFP ratio fluorescence, overnight; percent of plate control window, DMSO zero; Matrix metalloproteinase-14 (Homo sapiens), P50281; GFP/RFP ratio change, % at 20 µM; 360,000 compounds, 0.061% hits;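 active = GFP/RFP ratio change of at least 30% with cell ATP level not reduced by more than half and red fluorescence within 50% of control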; also: strong numbers were not always called active
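Material: RFP-PRO-GFP reporter HT1080 cells. Dosing: single-point 20 µM compound, 1% DMSO. Controls: DMSO and RFP-L50D-GFP cell wells. Timing: cells overnight before dosing, compound overnight, 37 °C, 5% CO2. Measure: GFP/RFP fluorescence ratio.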
MT1-MMP act inh RFP – second read-out of MT1-MMP act inh, no call of its own (marks repeat the call); RFP signal change, %; measured here: RFP expression control read;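 0 = vehicle wells; hits needed this value within 50% of zero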
* marks the source's active call; other numbers are inactive results; i = inactive; u = inconclusive; x = no result given.

SMILES	PABP polyA inh	CSC inhib	UUG fidelity	HIV Env fusion	eIF4H inh	Rce1 inh	MT1-MMP act inh	MT1-MMP act inh RFP
CCc1ccc(NC(=O)CN(C(=O)N2CCN(CC)CC2)S(=O)(=O)c2ccc(C)cc2)cc1	x	x	-15	-7	x	i	0	3
CCn1c(N2CCN(CC(=O)Nc3cccc(C)c3C)CC2)nc2ccccc21	2	0	x	42	-2	i	2	1
CNS(=O)(=O)c1ccc2c3c(cccc13)C(=O)N2C	3	-8	-11	8	-7	i	-2	-1
COCCCNC(=O)CSc1nc2c(sc(=S)n2-c2cc(Cl)ccc2OC)c(=O)[nH]1	0	-10	-1	3	5	i	-5	-4
COc1ccc(CCNC(=O)CN(CCc2ccccc2)S(C)(=O)=O)cc1	-8	-18	x	17	-8	i	3	-3
O=C(COC(=O)/C=C/c1cccc(C(F)(F)F)c1)Nc1cccc(S(=O)(=O)NC2=NCCC2)c1	x	x	-6	3	x	x	1	5
Cc1ccc(COC(=O)CCc2nc3ccccc3c(=O)[nH]2)cc1	-3	-19	x	11	-2	i	1	1
Cc1nc(N2CCN(c3ccccn3)CC2)c2c(C)c(C(=O)Nc3ccc(Br)cc3C)sc2n1	-12	-3	-11	38	-4	i	-2	-10
O=c1cc(N2CCc3ccccc3C2)[nH]c(=O)n1-c1ccccc1Cl	-12	-4	8	24	13	i	-5	5
CCN(CC)C(=O)Nc1c(C)n(C)n(-c2ccccc2)c1=O	35	-11	-4	x	-5	i	4	5
O=C(NCc1cccnc1)C1c2ccccc2C(=O)N1Cc1ccco1 (stereo unspecified)	8	-4	x	x	7	i	0	2
Cc1occc1C(=O)NC1CCCN(Cc2ccc(CC(C)C)cc2)C1 (stereo unspecified)	-10	0	-7	27	6	i	4	-6
O=C(O)c1cc(S(=O)(=O)Nc2cccc3ccccc23)c(Cl)cc1Cl	1	11	-10	-1	7	i	2	4
COc1ccc(C(=O)Nc2ccc(S(=O)(=O)Nc3nccnc3OC)cc2)cc1OC	3	2	-4	x	2	x	2	-2
Cc1ccc(-n2ncc(C(=O)NCc3ccc4c(c3)OCO4)c2NC(=O)c2ccco2)cc1C	-10	-10	-3	-23	-1	i	-5	-2
NC(=O)NC(CC(=O)Nc1cccnc1)c1cccc(Br)c1 (stereo unspecified)	-4	10	-13	8	-9	i	-3	0
COc1ccc(-n2nc(C(=O)NCC(=O)N3CCC(C)CC3)c3ccccc3c2=O)cc1Cl	1	x	4	-32	6	i	-1	-5
CCN1C(=O)[C@H]2[C@@H](c3ccc(SC4CCCCC4)cc3)N[C@@](CC(C)C)(C(=O)OC)[C@H]2C1=O	x	36	-25	-16	x	i	-8	-7
CCO[C@@H]1OC(C(=O)O)=C[C@H](c2coc3ccccc3c2=O)[C@H]1CCCO	-2	-8	-15	-13	7	i	6	7
C=CCOn1c(=O)c(=O)n(OCc2ccccc2)c2ccccc21	-8	-6	-5	x	-9	i	-2	4
Cc1c(C(=O)O)[nH]c2c1C(=O)CC(c1ccccc1)C2 (stereo unspecified)	16	-7	6	x	11	i	0	1
CCN(Cc1cnn(C)c1)C(=O)c1ccc2nc(Cc3cccc(Cl)c3)oc2c1	2	4	-15	-5	-1	i	3	-1
O=C(Nc1ccc([N+](=O)[O-])cc1)C(=O)Nc1cccc(C(=O)O)c1	-8	32	171*	115*	3	i	-2	1
O=C(NC1CCNCC1)C1CCCCC1	8	-18	-6	9	-15	i	-2	1
COCCCn1c(SCc2cc(=O)[nH]c3ccccc23)nnc1-c1ccco1	3	3	-7	x	-1	i	-1	2

Brought forward from above: two entries; new compounds follow.
SMILES	PABP polyA inh	CSC inhib	UUG fidelity	HIV Env fusion	eIF4H inh	Rce1 inh	MT1-MMP act inh	MT1-MMP act inh RFP
O=C(NC1CCNCC1)C1CCCCC1	8	-18	-6	9	-15	i	-2	1
COCCCn1c(SCc2cc(=O)[nH]c3ccccc23)nnc1-c1ccco1	3	3	-7	x	-1	i	-1	2
Cc1ccc2nc(NC(=O)c3ccc4ncsc4c3)sc2c1	3	-4	-17	-179	-3	i	0	-8
C=CCN(C(=O)c1csnn1)C(C(=O)NC1CCCC1)c1ccccc1F (stereo unspecified)	3	-15	-7	-5	-9	i	-4	2
CSc1cccc(NC(=O)C(=O)NCc2ccccc2)c1	1	-14	-4	-6	-3	i	4	3
O=[N+]([O-])c1cccc(S(=O)(=O)Nc2ccc(S(=O)(=O)NCC3CCCO3)cc2)c1 (stereo unspecified)	-5	-7	-1	-31	0	i	-1	3
CC1CCN(C(=S)NC(=O)c2ccccc2)CC1	-3	3	-17	x	-2	i	7	6
Cc1ccc2cccc(Oc3ccc([N+](=O)[O-])cc3[N+](=O)[O-])c2n1	-2	-4	x	-131	6	i	8	6
COc1cccc(C2NC(=O)c3ccccc3O2)c1OCc1ccccc1F (stereo unspecified)	-5	24	-1	0	15	i	0	0
c1ccc(-c2csc(-n3cccn3)n2)cc1	-6	-3	x	-10	-2	i	1	5
O=C(Oc1ccnc2cc(Cl)ccc12)N1CCCCCC1	4	-5	3	x	-4	i	2	-9
Cc1cc(OCc2cc(C(=O)N3CCCCCC3)no2)cc(C)c1Cl	-3	11	-9	-29	12	i	-1	0
COc1ccc(NC(=O)CCCCC(=O)Nc2ccc(OC)cc2OC)c(OC)c1	x	-22	-21	-6	x	i	3	2
CC(=O)Nc1ccc(S(=O)(=O)NCCC(=O)OCC(=O)NCc2ccccc2)cc1	x	-11	-6	x	x	x	3	-1
CC(=O)Nc1ccc2c(c1)ncn2C	-1	2	x	-20	-4	i	2	5
O=C(CSc1ccc(-c2cccnc2)nn1)Nc1ccccc1	2	-14	-10	-314	0	i	-1	-5
O=S(=O)(c1ccccc1)N1N=C(c2ccccc2)CC1c1ccccc1 (stereo unspecified)	-11	8	x	-1	-10	i	-1	-3
CCOC(=O)N1CCC(N(CCN(C)C)C(=S)Nc2cc(C)cc(C)c2)CC1	0	9	x	4	2	i	1	1
CCc1ccc(-c2cc(C(=O)NN3CCOCC3)c3ccccc3n2)cc1	13	3	-7	x	0	i	6	3
COc1ccc(-c2cc(C)no2)cc1S(=O)(=O)N(C)c1cccc(C)c1	-5	-3	12	7	1	i	-1	-4
CCOc1cc(/C=C2\N=C(SC(C)C(N)=O)N(c3ccc(OC(F)F)cc3)C2=O)ccc1O (stereo unspecified)	u	103*	-2	10	u	i	-81	-1
CCNC(=O)c1ccc(CSc2ccc(Cl)cc2)cc1	-6	-2	0	23	-4	i	-2	-6
Cc1ccc(NC(=S)NC(=O)/C=C/c2ccco2)c(O)c1	-4	-12	-10	6	29	i	-4	8
CC1CCCCC1NC(=O)CSc1nnnn1C (stereo unspecified)	x	x	-25	-10	x	x	3	7
Cc1cccc(C)c1NC(=O)C1(C)CCC(=O)N1c1cc(C(C)(C)C)nn1C (stereo unspecified)	x	x	-3	15	x	x	2	1
CC(C)S(=O)(=O)CC(=O)c1ccc(Cl)cc1	16	-8	-6	16	5	i	-2	-3
Cc1c(C(=O)NCc2ccc3c(c2)cc(C)n3C)cccc1[N+](=O)[O-]	0	x	-14	x	19	i	62	64

Complete entries from above:
CCOC(=O)N1CCC(N(CCN(C)C)C(=S)Nc2cc(C)cc(C)c2)CC1 is listed as PABP polyA inh = 0; CSC inhib = 9; UUG fidelity = x; HIV Env fusion = 4; eIF4H inh = 2; Rce1 inh = i; MT1-MMP act inh = 1; MT1-MMP act inh RFP = 1
Cc1ccc2nc(NC(=O)c3ccc4ncsc4c3)sc2c1 is listed as PABP polyA inh = 3; CSC inhib = -4; UUG fidelity = -17; HIV Env fusion = -179; eIF4H inh = -3; Rce1 inh = i; MT1-MMP act inh = 0; MT1-MMP act inh RFP = -8

Additional records.
SMILES	PABP polyA inh	CSC inhib	UUG fidelity	HIV Env fusion	eIF4H inh	Rce1 inh	MT1-MMP act inh	MT1-MMP act inh RFP
CC1CCN(CC(=O)N2c3ccccc3CCc3ccccc32)CC1	-6	-10	-27	-51	-2	i	4	5
Cn1c(=O)oc2cc(S(=O)(=O)NCc3ccccn3)ccc21	-6	-15	2	11	0	i	2	6
C/C(Cn1cnc([N+](=O)[O-])n1)=N\NC(=O)c1ccc(Br)cc1	-6	-13	-19	-11	-9	i	0	1
O=C(O)c1ccc2c(c1)C(=O)N(c1cccc(C(=O)/C=C/c3ccccc3)c1)C2=O	7	-16	x	-2	6	i	1	3
C=CCn1c(O)c(N=NC(=S)Nc2cccc(OC)c2)c2ccccc21	-2	42	-18	x	8	i	3	-7
COc1ccc(CCNC(=O)CC(C)S(=O)(=O)c2ccc3c(c2)NC(=O)CO3)cc1OC (stereo unspecified)	-3	-5	x	-7	-6	i	-4	-7
CCC(CC)NC(=O)c1cccc(Oc2ccccc2)c1	-11	x	x	8	-6	i	0	-2
N/C(=N\OC(=O)CCN1C(=O)c2ccccc2C1=O)c1ccccn1	1	-13	-16	6	5	i	-1	-1
Cc1nnc(SCC(=O)N2CCOCC2)n1C	-2	x	0	x	-14	i	2	-2
COc1ccc(Cc2nc(C(=O)Nc3ccc(OC)cc3)cs2)cc1	-6	4	0	59	-5	i	-1	-14
O=C(Nc1ccc(Br)cc1Br)Nc1cccc2[nH]c([C@@H]3O[C@H](CO)[C@@H](O)[C@H](O)[C@H]3O)nc12	x	x	-20	-13	x	x	0	6
C#CC[N+](C)(C)CCCCCCCCCCCC	1	50	x	26	0	i	-27	-27
COC(C[C@@H](O)C[C@@H](O)[C@@H](C)OCc1ccccc1)OC	x	-9	-10	8	x	i	-2	-2
O=C(Nc1cccc(-n2cnnn2)c1)C1CCCN(C(=O)Cc2cccc(Cl)c2)C1 (stereo unspecified)	x	x	-4	3	x	x	1	-3
C=C1N(c2ccc(Cl)cc2)C(=O)OC1(C)C	-2	-5	-24	-74	-6	i	-1	4
CCc1cccc2c(C(=O)COC(=O)/C=C/c3ccccc3OC)c[nH]c12	5	4	-13	9	0	i	1	1
COc1cccc(OCC(=O)NNC(=O)c2ccc3ccccc3c2O)c1	12	x	-20	-12	9	i	3	2
CC(Sc1nc(N)cc(=O)[nH]1)C(=O)NC1CCCCC1 (stereo unspecified)	-4	16	-17	x	-15	x	9	7
CCCOc1ccc(F)cc1-c1cc(C(=O)Nc2ccc(F)c(Cl)c2)[nH]n1	x	x	-6	36	x	x	-4	-22
COc1ccc(CNC(=O)COC(=O)CCS(=O)(=O)c2ccc(C)cc2)cc1OC	x	3	x	-5	x	i	0	3
CCOc1c(Br)cc(C(=O)OCC(=O)N2CCc3ccccc3C2)cc1OC	x	-16	4	x	x	x	3	1
CCOC(=O)C1=C(c2ccccc2)NC(=S)NC1c1cccc([N+](=O)[O-])c1 (stereo unspecified)	13	x	-14	x	2	i	5	3
Nc1ccc(N2CCN(c3ccccc3)CC2)c(F)c1	1	23	-16	-8	-4	i	0	1
Cc1cc(Br)ccc1NC(=O)CCN1C(=O)c2ccncc2C1=O	-2	x	-15	-3	4	i	-5	0
CC(=O)Nc1ccc(NC(=O)C2CC(=O)N(Cc3ccccc3)C2)cc1 (stereo unspecified)	-8	-13	-18	-4	-11	i	3	1
CCN(CC(=O)NCc1ccc(Cl)cc1)C(=O)/C=C/c1ccc(Cl)c([N+](=O)[O-])c1	-6	-12	-21	6	3	i	3	3
